Vif TR-FRET = inhibitors of Vif binding to APOBEC3G peptide, primary screen, biochemical, TR-FRET, GST-Vif 1-94, biotin-A3G peptide, dose response retest (AID 1117319). TR-FRET GST-Vif / biotin-A3G peptide binding; higher % means a stronger effect; test concentration not given here; strong numbers were not always called active. inhibition, %, or IC50 in µM where a hit was titrated. 0.57% of 260,000 active;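 active = above the screen mean plus three standard deviations and confirmed in dose response; inconclusive = results disagree or hit not tested in dose response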;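 note: Vif residues 1-94 fused to GST binding biotinylated APOBEC3G peptide 110-148; 0% = full assay without inhibitor and 100% = GST in place of GST-Vif; retest series ran down from 100 µM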
Ecoli growth = E. coli growth inhibition | Escherichia coli growth, OD600, 23 h; active compounds read low | OD600 absorbance (concentration not given with the values) | 0.21% of 330,000 active | AID 1053175;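 active = OD600 absorbance below the run mean of sample wells minus 3.6 SD, in any replicate, cut at about 0.56 in these data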;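 note: stock transfer was 300 nL into about 60 µL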
RanGTP-Impb inh = inhibitors of RanGTP-importin-beta interaction, primary screen, biochemical, FRET, CFP-Ran, YFP-importin-beta, homogeneous. 1.1% of 300,000 active. AID 2216. inhibition, % (concentration not given with the values). cell-free CFP-Ran/YFP-importin-beta FRET ratio;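 active = most replicates above 15%; inconclusive = exactly half above 15%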;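 note: 0% = DMSO wells and 100% = Ran loaded with GDP instead of GTP; wells of about 40 µL received 100 nL stock; the first replicate is given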
MLL AF4-AF9 inh = blocks AF4 peptide binding to human AF9; AID 651704; P42568; inhibition, % at 10 µM; 0.47% of 350,000 active; AlphaScreen, biotin-AF4 peptide binding to FLAG-AF9;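 active = every replicate reaching a set inhibition limit, whatever the replicate mean, cut at about 25% in these data; inconclusive = mean inhibition reaches that limit but some replicates miss it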;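 note: 0% = plate neutral control median and 100% = total signal loss; the record names both 10 and 1 µM as test concentration; the first replicate is given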
HNF4A DNA FP = change in binding of human HNF4 alpha to DNA; HNF4a-FITC DNA binding, fluorescence polarization, 1 h; 0.3% of 360,000 active; activity change, % at 10 µM; P41235; in the data active = activity change above about 30%, passing the limit was not always enough;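 note: controls were the assay level and a saturating level of protein; the project sought stronger binding though the title names inhibitors; some compounds called inactive have numbers as strong as hits; positive values seem to mean higher polarization but the record does not say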
Target sequence (P41235 whole entry, looked up): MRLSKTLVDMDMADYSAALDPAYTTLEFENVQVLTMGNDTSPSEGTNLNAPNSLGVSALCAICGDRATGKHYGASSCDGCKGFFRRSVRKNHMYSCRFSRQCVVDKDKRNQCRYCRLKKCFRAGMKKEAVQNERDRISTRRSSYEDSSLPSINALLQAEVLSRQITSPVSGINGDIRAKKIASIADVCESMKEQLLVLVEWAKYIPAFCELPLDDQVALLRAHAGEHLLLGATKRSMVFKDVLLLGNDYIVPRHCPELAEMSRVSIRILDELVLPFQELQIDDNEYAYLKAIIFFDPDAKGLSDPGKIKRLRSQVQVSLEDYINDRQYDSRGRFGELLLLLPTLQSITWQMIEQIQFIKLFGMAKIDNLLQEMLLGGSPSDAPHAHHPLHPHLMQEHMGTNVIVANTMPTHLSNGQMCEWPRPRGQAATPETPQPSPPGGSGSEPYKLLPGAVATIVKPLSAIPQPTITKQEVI
FGF22 binding = shifts melting point of recombinant human FGF22. Q9HCT0. recombinant FGF22 thermal shift, SYPRO orange fluorescence; percent of sucrose octasulfate shift, DMSO zero. calls only at 9.99 µM. 1.5% of 340,000 active. AID 651658;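 active = melting point raised past a set limit in the mean and every replicate; inconclusive = no clear call; three in four hits are not shown here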
Target sequence (Q9HCT0 whole entry, looked up): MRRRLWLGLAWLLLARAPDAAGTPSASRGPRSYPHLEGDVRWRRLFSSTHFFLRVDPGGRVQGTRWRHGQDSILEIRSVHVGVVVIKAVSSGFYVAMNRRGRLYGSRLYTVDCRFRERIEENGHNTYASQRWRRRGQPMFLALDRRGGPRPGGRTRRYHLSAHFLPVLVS
UCH37 DUB inh = blocks the human deubiquitinase UCH37. AID 588478. purified proteasome/UCH37, Ub-AMC cleavage fluorescence. 0.33% of 330,000 active. inhibition, % (no concentration beside the values);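 active = mean of two replicates above 20%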;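 note: 0% = compound-free wells with enzyme and 100% = wells lacking proteasome; stock transfer was 100 nL into about 20 µL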
Target sequence (Q9Y5K5 whole entry, looked up): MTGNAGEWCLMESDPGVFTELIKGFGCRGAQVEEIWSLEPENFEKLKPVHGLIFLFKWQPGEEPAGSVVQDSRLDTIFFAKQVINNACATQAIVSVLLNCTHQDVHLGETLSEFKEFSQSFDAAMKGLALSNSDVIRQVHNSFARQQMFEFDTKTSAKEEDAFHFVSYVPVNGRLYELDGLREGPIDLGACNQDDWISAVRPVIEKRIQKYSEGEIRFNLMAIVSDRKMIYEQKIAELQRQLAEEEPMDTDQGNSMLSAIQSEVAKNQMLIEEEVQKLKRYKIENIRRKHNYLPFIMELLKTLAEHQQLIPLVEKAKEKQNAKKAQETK
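Schedule: 30 min plus 25 min, room temperature / Material: human UCH37 within purified proteasomes / Technique: AMC fluorescence intensity at 355/460 nm / Buffer or medium: pH 7.4 Tris-HCl (50 mM) with ovalbumin, ATP-MgCl2, DTT / Controls: wells without proteasome as full block, compound-free enzyme plus substrate as uninhibited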
* marks the source's active call; other numbers are inactive results; i = inactive; ? = inconclusive; / = not tested or not shown; + = active, no number; & = joins results of further samples.

SMILES | Vif TR-FRET | Ecoli growth | RanGTP-Impb inh | MLL AF4-AF9 inh | HNF4A DNA FP | FGF22 binding | UCH37 DUB inh
Cc1cc(S(=O)(=O)NCC(C)C)ccc1OCC(=O)NCC1CCCO1 (stereo not drawn) | / | 0.668 | -4.7 | / | 2.5 | / | 2.0
COc1cc(CNC(=O)OC2CC3CC2[C@H]2CCCCN2C3=O)cc(OC)c1 (stereo partly drawn) | / | / | / | 0.3 | -1.8 | i | /
CCN(Cc1ccccc1)S(=O)(=O)c1ccc(S(=O)(=O)N2CCN(C)CC2)cc1 | -3.4% | 0.691 | 2.7 | / | 2.2 | / | 5.3
CN(C(=O)c1ccc(OC2CCN(S(=O)(=O)N(C)C)CC2)cc1)C1CCCCC1 | 67.9% | 0.663 | 0.2 | -0.2 | 3.1 | i | 2.9
CCc1cc(=O)oc2cc(C)cc(O)c12 | -8.1% | 0.63 | -0.9 | -2.1 | 1.2 | i | -3.8
CC1CCCN(S(=O)(=O)c2ccc(Cl)s2)C1 (stereo not drawn) | / | 0.713 | -3.2 | -1.4 | -4.4 | i | 1.5
CCOC(=O)Cn1cnc2scc(-c3ccc(C)c(C)c3)c2c1=O | 2.0% | 0.708 | 5.6 | -4.6 | 6.2 | i | 5.9
CCCCC(=O)Nc1ccc(C(=O)Nc2ccc(S(=O)(=O)Nc3nccc(C)n3)cc2)cc1 | 0.2% | 0.707 | 2.3 | / | 0.4 | / | -0.2
Cc1nn(Cc2noc(C(=O)NCC3CCCO3)n2)c(C)c1Br (stereo not drawn) | / | 0.701 | 4.2 | -5.0 | 3.5 | i | 4.5
CCN(C(=O)CN1C(=O)CN(C)C1=O)c1cccc2ccccc12 | -10.9% | 0.674 | / | -1.5 | 4.0 | i | 4.4
O=[N+]([O-])c1c(NCCCO)cc(N2CCCCCC2)c2nonc12 | 0.3% | 0.686 | -0.3 | -1.7 | 7.0 | i | 15.3
COc1ccc(-c2cc(C(F)(F)F)nc(SCCC(=O)NCc3ccccc3)n2)cc1 | 0.7%&-9.4% | 0.715 | -1.9 | / | 2.7 | / | 5.6
CCOc1ccc(S(=O)(=O)N2CCC(c3ccccc3)CC2)cc1C(=O)O | 1.4% | 0.698 | 0.3 | -2.6 | -0.4 | i | 4.4
O=C(N/N=C/c1ccc(C(F)(F)F)cc1)c1ccc(O)cc1 | 0.0% | / | 1.3 | 1.7 | 4.5 | + | /
Cc1cc(C)c2c(c1)/C(=N/NC(=S)Nc1ccc(F)cc1)CCC2 | ? | / | 0.1 | / | 1.5 | / | /
CCn1c(CNC(=O)c2ccccc2F)nnc1SCc1nc2ccccc2c(=O)[nH]1 | 4.7% | 0.665 | 0.7 | -0.8 | / | i | -2.6
CC1(C)SC2C(NC(=O)COc3ccccc3)C(=O)N2C1C(=O)O (stereo not drawn) | 2.0% | 0.696 | 0.3 | -0.5&-1.4 | 4.7&-2.6 | i | 4.7
Cc1cc(Nc2ccccc2)nc(N2CCOCC2)n1 | -3.3% | 0.753 | 4.3 | / | 0.3 | / | 4.3
COc1cccc(CN(C)C(=O)c2ccc(NC(=O)CC3SC(N4CCCC4)=NC3=O)cc2)c1OC (stereo not drawn) | -3.2% | 0.669 | 0.1 | -2.1 | 5.5 | / | 5.8
O=S(=O)(c1ccccc1)n1ccc2cccnc21 | 22.5% | 0.74 | 1.3 | / | 2.4 | / | 4.9
COc1ccc(-c2nc(-c3ccncc3)no2)cc1OC | 6.0% | 0.727 | 1.7 | / | 4.3 | / | -0.6
C#Cc1cccc(-n2nnc(C(=O)OC)c2-c2ccccc2)c1 | -1.8% | 0.641 | 3.5 | 0.3 | 1.4 | i | 1.3
CC(=O)NC1C(c2nc3ccccc3s2)=C(c2ccccc2)C(=O)N1c1ccc(C)cc1 (stereo not drawn) | 9.0% | 0.696 | -4.4 | / | 0.9 | / | 3.0
CC(=O)c1ccc(S(=O)(=O)N2CCC(c3nnc(SCCN4CCCC4)n3C)CC2)cc1 | / | 0.668 | 1.3 | -4.7 | 2.2 | i | 0.8
O=C(O)C1CCCCC1C(=O)Nc1ccccc1F (stereo not drawn) | 3.4% | 0.668 | ? | / | 2.5 | / | 3.3
CCc1cc2c3c(c1)C(C)CC(C)(C)N3C(=O)C2=O (stereo not drawn) | / | 0.67 | -1.3 | / | -0.7 | / | 2.1
O=C(Nc1ccccc1C(=O)NCCCN1CCOCC1)c1cccc([N+](=O)[O-])c1 | 0.4% | 0.705 | 2.6 | 0.1 | 1.4 | i | 5.0
c1ccc(COC2CCCN(Cc3nc(-c4cnccn4)no3)C2)nc1 (stereo not drawn) | 1.4% | 0.661 | 5.6 | -0.7 | 6.1 | i | -0.2
O=C(c1cccc(C(F)(F)F)c1)C1CCCN(C(=O)CN2CCOC2=O)C1 (stereo not drawn) | / | 0.711 | 2.6 | 1.0 | -1.4 | i | 1.3
CCOC(=O)CN1NC2(CCCCC2)NC1=S | -5.6% | 0.707 | 6.4 | / | 3.4 | / | 4.7
OCCC1CN(Cc2cnc(N3CCOCC3)s2)CCN1C1CCCC1 (stereo not drawn) | -10.1% | 0.69 | 9.6 | / | 0.8 | i | 2.5
COc1ccc(Cl)cc1NC(=S)Nc1ccccc1F | 0.3% | 0.694 | 6.2 | 0.5 | 0.0 | i | 1.0
CCCSc1nc2c(c(=O)[nH]c(=O)n2C)n1CC(O)COc1ccccc1 (stereo not drawn) | / | 0.727 | -2.2 | -1.0 | 0.0 | i | 2.6
CS(=O)(=O)n1nc(-c2ccco2)nc1N | 18.4% | 0.672 | -5.2 | -1.1 | 1.3 | i | 0.4
N=c1c2c(-c3ccccc3)c(-c3ccccc3)n(Cc3ccccc3)c2ncn1CCO | 0.5% | 0.664 | 0.4 | / | 4.9 | / | 5.4
CCOC(=O)N1CCC(N2Cc3cccc(C(=O)N4CCN(C5CCCCC5)CC4)c3C2=O)CC1 | 7.8% | 0.773 | 0.8 | -6.8 | 7.6 | i | 2.1
CCN(CC)C(=O)Cn1c(=O)n(CC(=O)N2CCCCC2)c(=O)c2sccc21 | / | 0.665 | 1.6 | 0.3 | 3.2 | i | 0.4
CCOC(=O)C1(C)CCN1C(=O)c1cccc(C#N)c1 (stereo not drawn) | / | / | / | 1.3 | -2.4 | i | /
C=CCC1CCCCC12NC(=O)NC2=O (stereo not drawn) | ? | 0.744 | -1.2 | / | 4.7 | / | 1.4
Cc1ccc(C(=O)c2cc([N+](=O)[O-])ccc2N2CCOCC2)c(C)c1 | 26.5% | 0.703 | 1.4 | / | 3.5 | / | 4.2
COc1ccc(C)cc1S(=O)(=O)NCCN1CCOCC1 | -2.1% | 0.668 | -3.6 | 1.0 | -1.6 | i | 3.1
COc1ccc(/C(C)=N/NC(=O)CNC(=O)c2ccncc2)c(OC)c1 | / | / | 4.5 | -10.8 | 2.0 | i | /
S=C(NCCc1ccc(Cl)cc1)NCc1ccco1 | 5.2% | 0.695 | -3.4 | 3.0 | 1.9 | i | 5.0
S=C(Nc1ccccc1)N1CCCCCCC1 | 10.1% | 0.677 | -1.9 | -2.1 | 2.2 | i | 4.2
CCOc1ccc(C(=S)N2CCCC2)cc1 | -3.0% | 0.679 | -5.6 | / | 1.5 | / | 3.4

Three compounds already listed, ordered by the number in HNF4A DNA FP, ascending.
compound	HNF4A DNA FP
CCOc1ccc(C(=S)N2CCCC2)cc1	1.5
S=C(Nc1ccccc1)N1CCCCCCC1	2.2
CCN(CC)C(=O)Cn1c(=O)n(CC(=O)N2CCCCC2)c(=O)c2sccc21	3.2

(next part)
SMILES | Vif TR-FRET | Ecoli growth | RanGTP-Impb inh | MLL AF4-AF9 inh | HNF4A DNA FP | FGF22 binding | UCH37 DUB inh
O=C(Nc1ccc(N2CCCCC2)cc1)c1ccccc1 | 4.8% | 0.618 | -1.5 | / | 7.9 | / | 0.5
COc1ccc(CN2CCN(C(=O)c3cccc(OC)c3OC)CC2)cc1OC | 6.5% | / | -2.1 | 2.2 | 1.0 | i | /
Cc1cc(F)ccc1S(=O)(=O)N1CCCOC1CNC(=O)C(=O)NCc1ccncc1 (stereo not drawn) | -0.8% | 0.706 | -1.9 | -7.6 | 4.8 | i | 0.2
CCOC(=O)c1ccc2c(c1)nc(C1CCN(S(=O)(=O)c3cccs3)CC1)n2CC | ? | 0.69 | -3.1 | / | 1.3 | / | -0.5
C[C@@H]1CCCCO[C@H](CN(C)C(=O)CCC(F)(F)F)[C@@H](C)CN([C@H](C)CO)C(=O)c2cc(NC(=O)c3ccncc3)ccc2O1 | / | / | / | -3.8 | 1.0 | i | /
O=C(C1=C(O)C(=O)N(CCN2CCOCC2)C1c1ccc(F)cc1)c1cc2ccccc2o1 (stereo not drawn) | / | 0.708 | 1.7 | 1.9 | -24.4 | i | 9.6
Cc1sc2c(=O)n3c(nc2c1C(=O)NCCCN1CCOCC1)CCCCC3 | 2.8% | 0.694 | ? | / | 0.6 | / | 2.6
O=C1c2ccccc2C(=O)N1CCCCN(C(=O)c1ccco1)c1ccc(Cl)cc1 | 2.7% | 0.745 | 4.7 | / | 1.4 | / | 0.4
OCCC1CN(Cc2ccc3nsnc3c2)CCN1C1CCCC1 (stereo not drawn) | ? | / | -0.6 | -3.4 | 0.9 | i | /
CC(C)CC(=O)Nc1c2c(nn1-c1ccc(F)cc1)CS(=O)(=O)C2 | 0.5% | 0.695 | 0.0 | -0.7 | -2.0 | i | 4.8
O=C1NC(=O)/C(=C/c2ccco2)N1 | / | / | / | -9.2 | -3.9 | i | 7.3
COc1ccc(CC(N)c2csc(Nc3nncc4ccccc34)n2)cc1 (stereo not drawn) | / | / | / | 11.8 | 8.7 | i | /
O=C(CCc1ccccc1)NC1CCCc2ccccc21 (stereo not drawn) | / | / | -4.0 | -0.8 | 0.6 | i | /
Cc1ccnc(NC(c2ccsc2)c2ccc3ccc(C)nc3c2O)c1 (stereo not drawn) | -1.1% | 0.662 | 0.7 | 55.1* | 0.3 | i | 3.4
CC(C)(C)NC(=O)C(c1ccccc1)N(C(=O)c1csnn1)C1CC1 (stereo not drawn) | -5.0% | 0.739 | -2.3 | / | 3.2 | / | 2.3
Cc1csc(=O)n1CC(=O)OCC(=O)c1c(N)n(CC(C)C)c(=O)n(C)c1=O | 0.2% | 0.707 | -1.0 | -3.2 | 3.0 | i | 5.9
Cc1ccc(S(=O)(=O)NC(C(=O)Oc2ccc3ccc(=O)oc3c2)c2ccccc2)cc1 (stereo not drawn) | / | 0.702 | 20.4* | / | 1.6 | / | i
CSCCC(NC(=O)c1ccccc1Br)C(=O)NNC(=O)c1csc(N2CCOCC2)n1 (stereo not drawn) | -6.0% | 0.672 | 4.5 | -0.8 | 3.3 | i | 1.1
COc1ccc(-c2ncncc2-c2ccccc2)c(O)c1 | -0.2% | 0.656 | -9.1 | 1.6 | -2.7 | i | 0.9
COc1ccc2cc3c(N)nn(C(=O)c4ccccc4[N+](=O)[O-])c3nc2c1 | -5.1% | 0.709 | -1.6 | -11.3 | 4.5 | i | -1.2
Cc1c(NC(=O)c2ccc(Br)o2)c(=O)n(-c2ccccc2)n1C | -5.0% | 0.71 | 0.5 | / | -1.6 | / | -2.7

Ordered by number of heavy atoms (falling): three of the compounds above
SMILES | Vif TR-FRET | Ecoli growth | RanGTP-Impb inh | MLL AF4-AF9 inh | HNF4A DNA FP | FGF22 binding | UCH37 DUB inh
CSCCC(NC(=O)c1ccccc1Br)C(=O)NNC(=O)c1csc(N2CCOCC2)n1 (stereo not drawn) | -6.0% | 0.672 | 4.5 | -0.8 | 3.3 | i | 1.1
COc1ccc2cc3c(N)nn(C(=O)c4ccccc4[N+](=O)[O-])c3nc2c1 | -5.1% | 0.709 | -1.6 | -11.3 | 4.5 | i | -1.2
Cc1c(NC(=O)c2ccc(Br)o2)c(=O)n(-c2ccccc2)n1C | -5.0% | 0.71 | 0.5 | / | -1.6 | / | -2.7

Compound activity: PubChem BioAssay, several laboratories

An excerpt; count on the stated rates, not on these rows.
